# Vaccinia stage – blocks a specific stage of Vaccinia orthopoxvirus infection. 0.01% of 89,000 active. AID 1053133. activity change (mCherry), % (no concentration beside the values). Vaccinia-infected cells, mCherry/Venus stage reporter fluorescence; hits give low values; some inactives read as strong as hits;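 active = mCherry past -33% and 40 or more points under the early reporter, replicates agreeing; inconclusive = past -33% without that gap or agreement; tested in A549 cells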;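 also: scaled between vehicle wells and reference inhibitor wells; 23 nL library stock went into each well; one replicate is shown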
# Vaccinia stage Venus – second read-out of Vaccinia stage, no call of its own (marks repeat the call); activity change (Venus), %; measured here: Venus reporter, other viral stage;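 negative = less Venus signal; first of two replicates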
# Numbers without * were called inactive; ? = inconclusive; / = not tested or not shown. This is a subset. The share of hits here may be higher or lower than overall.
Structure	Vaccinia stage	Vaccinia stage Venus
C[C@@H]1CCCCO[C@@H](CN(C)S(=O)(=O)c2ccccc2)[C@@H](C)CN([C@H](C)CO)C(=O)c2cc(N(C)C)ccc2O1	24	11
COC(=O)[C@H]1[C@H](CO)[C@H]2Cn3c(cccc3=O)[C@H]2N1CC1CCCCC1	8	38
CCC(=O)N[C@H]1CC[C@@H](CC(=O)NCC2CCCCC2)O[C@@H]1CO	-2	13
C[C@H]1CN([C@@H](C)CO)C(=O)c2cc(NS(=O)(=O)c3ccccc3)ccc2O[C@@H]1CN(C)C(=O)Nc1ccccc1	3	8
CCC(=O)N1[C@H](CN(CC)C(=O)NC2CCCC2)[C@@H](c2ccccc2)[C@@H]1CO	0	12
O=C(C[C@@H]1C[C@H]2c3cc(NS(=O)(=O)c4ccccc4)ccc3O[C@H]2[C@H](CO)O1)N1CCOCC1	-2	12
CC(C)C#Cc1cnc2c(c1)C(=O)N([C@@H](C)CO)C[C@@H](C)[C@H](CN(C)C(=O)Nc1ccccc1F)O2	2	9
O=C(c1cccc(F)c1)N1C[C@@H]2[C@H](c3ccccc31)[C@H](CO)N2C(=O)C1CCOCC1	5	9
CN(C)C(=O)[C@@H]1[C@@H](CO)[C@@H]2Cn3c(ccc(-c4ccccc4)c3=O)[C@H]1N2CC1CCCC1	6	3
C[C@@H]1CCCCO[C@H](CN(C)C(=O)CCCN(C)C)[C@@H](C)CN([C@H](C)CO)C(=O)c2cc(NS(=O)(=O)c3cccs3)ccc2O1	24	11
COCC(=O)N[C@H]1CC[C@H](CC(=O)NCc2ccc(Cl)cc2)O[C@@H]1CO	10	7
C[C@H]1CN([C@@H](C)CO)C(=O)Cc2cc(NC(=O)Cc3ccccc3)ccc2O[C@@H]1CN(C)C(=O)Nc1cccc2ccccc12	30	23
CCCC#Cc1cnc2c(c1)C(=O)N([C@@H](C)CO)C[C@@H](C)[C@@H](CN(C)C(=O)c1cccc(F)c1)O2	-6	8
C[C@@H]1CN([C@@H](C)CO)C(=O)c2cc(-c3cccc(F)c3)cnc2O[C@@H]1CN(C)CC1CCOCC1	-10	1
O=C(Nc1ccc(Cl)cc1)N1C[C@@H]2[C@H](c3ccccc31)[C@@H](CO)N2C(=O)c1cccnc1	4	10
CNC(=O)C[C@@H]1CC[C@H]2[C@@H](COC[C@@H](O)CN2C(=O)c2ccccn2)O1	7	4
O=C(Nc1ccccc1F)N1CC(=O)N2[C@H](CO)[C@H](c3ccc(C#Cc4ccc(F)cc4)cc3)[C@H]2C1	?	/
COc1cccc(NC(=O)N2CC3(C2)[C@@H](c2ccccc2)[C@@H](CO)N3C(=O)C2CCC2)c1	3	13
CC(=O)N1Cc2cc(C(=O)NCc3cc(F)cc(F)c3)nc(-c3cccc(C4=CCCC4)c3)c2[C@H]1CCO	-35	-26
C/C=C/c1ccc([C@H]2[C@@H](CO)N(CC3CCCC3)C23CN(C(=O)COC)C3)cc1	-20	-11
CO[C@@H]1CN(C)C(=O)c2cc(NC(=O)Nc3c(C)noc3C)ccc2OC[C@H](C)N(CC2CC2)C[C@H]1C	7	10
O=C(c1ccccn1)N1CC(=O)N2[C@H](C1)[C@H](c1ccc(C#CC3CCCC3)cc1)[C@@H]2CO	-7	-26
O=C(O)C[C@@H]1CC[C@H]2[C@@H](COC[C@H](O)CN2S(=O)(=O)c2ccc(F)cc2)O1	17	10
COc1ccc(S(=O)(=O)Nc2cccc3c2O[C@H](CN(C)CC2CCCCC2)[C@H](C)CN([C@@H](C)CO)C3=O)cc1	0	-1
C[C@@H]1CN([C@H](C)CO)S(=O)(=O)c2ccc(C#Cc3ccccc3)cc2O[C@@H]1CN(C)C(=O)Cc1ccccn1	?	/
C[C@@H]1CN([C@@H](C)CO)C(=O)c2cc(NC(=O)CCCN(C)C)ccc2O[C@@H](C)CCCCO[C@@H]1CN(C)S(=O)(=O)c1cccs1	-4	-1
COc1ccc(-c2cccc(-c3nc(C(=O)N(C)C)cc4c3[C@H](CCO)N([S@@](=O)C(C)(C)C)C4)c2)cc1	4	14
C[C@H](CO)N1C[C@H](C)[C@@H](CN(C)C(=O)NC2CCCCC2)Oc2ccc(NC(=O)NC3CCCCC3)cc2C1=O	3	-2
CC(C)NC(=O)Nc1ccc2c(c1)CC(=O)N([C@H](C)CO)C[C@H](C)[C@@H](CN(C)Cc1ccc3c(c1)OCO3)O2	4	-3
Cc1cc(C(=O)Nc2cccc3c2O[C@H](CN(C)S(=O)(=O)c2ccc(Cl)cc2)[C@H](C)CN([C@H](C)CO)C3=O)n(C)n1	5	-3
C[C@@H]1CN([C@@H](C)CO)C(=O)c2cc(NC(=O)c3ccncc3)ccc2O[C@@H](C)CCCCO[C@H]1CN(C)S(=O)(=O)c1cccs1	1	-2
CN(C)C(=O)c1ccc(-c2ccc([C@H]3[C@@H](C#N)N(C(=O)C4CCOCC4)[C@H]3CO)cc2)cc1	-4	-1
C=C/C=C/[C@@H]1C(=C)CN2[C@H]1[C@H](Cc1ccccc1)OC(=O)[C@@H]2Cc1ccccc1	5	13
CO[C@H](CN(C)S(=O)(=O)c1ccc(Cl)cc1)[C@@H](C)CN(C(=O)Nc1ccccc1F)[C@H](C)CO	-16	-1
C[C@H](O)C#Cc1cnc2c(c1)C(=O)N([C@H](C)CO)C[C@@H](C)[C@H](CN(C)CC1CCCCC1)O2	5	2
C[C@H]1CCCCO[C@H](CN(C)Cc2ccc(C(=O)O)cc2)[C@@H](C)CN([C@@H](C)CO)C(=O)c2cc(NC(=O)Nc3ccc(F)cc3)ccc2O1	9	6
COc1cccc(-c2ccc(C3[C@@H]4CN(S(=O)(=O)c5cccc(OC)c5)C[C@H]3N4)cc2)c1 (stereo partly drawn)	?	1
CO[C@@H]1CN(C)C(=O)c2ccc(NS(=O)(=O)c3cn(C)cn3)cc2OC[C@@H](C)N(Cc2cccc(F)c2)C[C@@H]1C	-1	-6
C[C@H]1CN([C@@H](C)CO)C(=O)c2cc(C#CCc3ccccc3)cnc2O[C@@H]1CN(C)Cc1cccc(C(=O)O)c1	7	8
COc1ccc(C#Cc2ccc3c(c2)O[C@H](CN(C)C)[C@@H](C)CN([C@@H](C)CO)S3(=O)=O)cc1	?	/
O=C(CN1CCOCC1)N1CCCCN2[C@H](C1)[C@H](c1ccc(-c3ccccc3)cc1)[C@@H]2CO	28	23
COCC#Cc1ccc2c(c1)O[C@@H](CN(C)C(=O)NC(C)C)[C@@H](C)CN([C@@H](C)CO)S2(=O)=O	9	5
C[C@H](CO)N1C[C@H](C)[C@@H](CN(C)C(=O)Nc2ccc3c(c2)OCO3)OCCCC[C@H](C)Oc2ccc(NC(=O)c3ccncc3)cc2C1=O	30	11
Cc1ccccc1-c1ccc2c(c1)O[C@@H](CN(C)C)[C@@H](C)CN([C@@H](C)CO)S2(=O)=O	-6	-6
O=C(Nc1ccc(F)cc1)N1CCCCN2[C@H](CO)[C@H](c3ccc(C#Cc4ccccc4)cc3)[C@@H]2C1	-27	-20
C[C@@H]1CN([C@H](C)CO)C(=O)c2cc(C#CC(C)(C)O)cnc2O[C@H]1CN(C)Cc1ccccn1	4	13
CC(=O)N1[C@@H]2Cn3c(ccc(-c4cccc(F)c4)c3=O)[C@H]1[C@@H](C(=O)NCCCN(C)C)[C@@H]2CO	11	0
C[C@@H]1CN([C@H](C)CO)S(=O)(=O)c2ccc(C#CC(C)(C)O)cc2O[C@H]1CN(C)C	8	8
C[C@H](CO)N1C[C@H](C)[C@@H](CN(C)C(=O)c2cccc(F)c2)Oc2ncc(-c3cccc(F)c3)cc2C1=O	-17	-18
CCCNC(=O)C[C@H]1CC[C@H]2[C@@H](COc3ccc(NC(=O)Nc4ccc(C#N)cc4)cc3C(=O)N2C)O1	5	7

# New compounds follow:
Structure	Vaccinia stage	Vaccinia stage Venus
CC(C)NC(=O)Nc1ccc2c(c1)CC(=O)N([C@@H](C)CO)C[C@@H](C)[C@H](CN(C)C)O2	24	7
CC(C)NC(=O)N(C)C[C@H]1Oc2ccc(NC(=O)CCCCCC(=O)Nc3ccccc3N)cc2C(=O)N([C@H](C)CO)C[C@@H]1C	10	5
CC(C)NC(=O)N[C@@H]1C=C[C@H](CC(=O)NC2Cc3ccccc3C2)O[C@@H]1CO	7	2
CC=Cc1ccc2n(c1=O)C[C@H]1[C@H](CO)[C@@H](C(=O)NC3Cc4ccccc4C3)N(CC3CC3)[C@@H]21 (mixture of isomers)	7	8
COc1ccc(NC(=O)N(C)C[C@@H]2Oc3c(NC(=O)Nc4ccc5c(c4)OCO5)cccc3C(=O)N([C@H](C)CO)C[C@@H]2C)cc1	1	-4
C[C@@H]1CCCCO[C@@H](CN(C)C(=O)c2ccccc2)[C@@H](C)CN([C@H](C)CO)C(=O)c2cc(NC(=O)Nc3ccccc3)ccc2O1	14	6
CCC(=O)N1CC[C@H]2[C@H](CO)Nc3ccc(C#Cc4ccc(OC)cc4)cc3[C@H]21	-6	-8
CO[C@H](CN(C)C(=O)c1ccccc1F)[C@@H](C)CN([C@H](C)CO)S(=O)(=O)c1ccccc1	19	12
COc1ccc(NC(=O)N(C)C[C@@H]2Oc3ccc(NC(=O)C4CC4)cc3CC(=O)N([C@H](C)CO)C[C@H]2C)cc1	-2	-6
COc1ccc(NC(=O)N(C)C[C@H]2OCCCC[C@@H](C)Oc3ccc(NC(=O)Nc4ccccc4)cc3C(=O)N([C@@H](C)CO)C[C@H]2C)cc1	1	-9
C[C@@H]1CN([C@H](C)CO)C(=O)Cc2cc(NS(=O)(=O)c3ccc(Cl)cc3)ccc2O[C@H]1CN(C)C(=O)Nc1ccc(C(F)(F)F)cc1	-10	1
C[C@@H]1CN([C@@H](C)CO)C(=O)c2cc(-c3cncnc3)cnc2O[C@H]1CN(C)CC1CCOCC1	9	7
O=C(NCc1ccc(F)cc1)[C@@H]1[C@@H](CO)[C@@H]2Cn3c(cccc3=O)[C@H]1N2CC1CCCC1	16	3
CC(C)NC(=O)Nc1cccc2c1O[C@H](CN(C)C)[C@H](C)CN([C@@H](C)CO)C2=O	21	13
CO[C@H]1CN(C)C(=O)c2cc(NC(C)=O)ccc2OC[C@H](C)N(C(=O)c2ccccc2F)C[C@@H]1C	-3	-5
CC(C)NC(=O)Nc1ccc2c(c1)C(=O)N([C@@H](C)CO)C[C@@H](C)[C@H](CN(C)CC1CCCCC1)OCCCC[C@@H](C)O2	7	-14
COCC(=O)N1CC(=O)N2[C@H](CO)[C@@H](c3ccc(C#CC4CC4)cc3)[C@H]2C1	4	3
Cc1ccc(S(=O)(=O)Nc2ccc3c(c2)C(=O)N([C@@H](C)CO)C[C@@H](C)[C@H](CN(C)C(=O)Nc2c(C)noc2C)O3)cc1	5	1
C[C@@H]1CN([C@@H](C)CO)C(=O)c2cc(NS(=O)(=O)c3ccc(Cl)cc3)ccc2O[C@@H]1CN(C)C(=O)Nc1cccc2ccccc12	21	18
C[C@@H]1CN([C@H](C)CO)C(=O)Cc2cc(NC(=O)Nc3ccccc3)ccc2O[C@H]1CN(C)Cc1ccc(-c2ccccc2)cc1	-5	-13
C[C@H](CO)N1C[C@H](C)[C@H](CN(C)C(=O)Cc2ccccc2)OCCCC[C@H](C)Oc2ccc(NS(=O)(=O)c3cccs3)cc2C1=O	-17	-18
Cc1ccc(S(=O)(=O)N(C)C[C@@H]2Oc3ccc(NC(=O)Cc4ccccc4)cc3C(=O)N([C@H](C)CO)C[C@@H]2C)cc1	-8	-3
O=C(C[C@@H]1C=C[C@@H](NC(=O)CC2CC2)[C@@H](CO)O1)NCc1ccccc1	-3	-11
CCC(=O)N1CC2(C1)CN(Cc1ccc(Cl)cc1)[C@@H](CO)c1[nH]c3cc(OC)ccc3c12	4	4
N#C[C@H]1[C@@H](c2ccc(C3=CCCCC3)cc2)[C@@H](CO)N1C(=O)c1cccc(F)c1	-4	5

# A draw from above in order of number of heavy atoms, lowest first:
Structure	Vaccinia stage	Vaccinia stage Venus
CO[C@H](CN(C)C(=O)c1ccccc1F)[C@@H](C)CN([C@H](C)CO)S(=O)(=O)c1ccccc1	19	12
COc1ccc(NC(=O)N(C)C[C@@H]2Oc3ccc(NC(=O)C4CC4)cc3CC(=O)N([C@H](C)CO)C[C@H]2C)cc1	-2	-6
Cc1ccc(S(=O)(=O)N(C)C[C@@H]2Oc3ccc(NC(=O)Cc4ccccc4)cc3C(=O)N([C@H](C)CO)C[C@@H]2C)cc1	-8	-3

# One compound at a time (already shown). Order of values: Vaccinia stage	Vaccinia stage Venus
# Listed for O=C(C[C@@H]1C=C[C@@H](NC(=O)CC2CC2)[C@@H](CO)O1)NCc1ccccc1 = -3	-11
# Listed for COc1ccc(NC(=O)N(C)C[C@@H]2Oc3c(NC(=O)Nc4ccc5c(c4)OCO5)cccc3C(=O)N([C@H](C)CO)C[C@@H]2C)cc1 = 1	-4
# Listed for CC(C)NC(=O)N(C)C[C@H]1Oc2ccc(NC(=O)CCCCCC(=O)Nc3ccccc3N)cc2C(=O)N([C@H](C)CO)C[C@@H]1C = 10	5
# Listed for Cc1ccc(S(=O)(=O)N(C)C[C@@H]2Oc3ccc(NC(=O)Cc4ccccc4)cc3C(=O)N([C@H](C)CO)C[C@@H]2C)cc1 = -8	-3
# Listed for C[C@@H]1CN([C@H](C)CO)C(=O)Cc2cc(NS(=O)(=O)c3ccc(Cl)cc3)ccc2O[C@H]1CN(C)C(=O)Nc1ccc(C(F)(F)F)cc1 = -10	1

# Continuation.
Structure	Vaccinia stage	Vaccinia stage Venus
COc1cccc(-c2ccc([C@@H]3[C@H](CO)N4C(=O)CN(C(=O)c5cccnc5)C[C@@H]34)cc2)c1	15	23
CC(C)NC(=O)N(C)C[C@@H]1Oc2c(NC(=O)Nc3ccccc3)cccc2C(=O)N([C@@H](C)CO)C[C@H]1C	1	-1
C[C@H](CO)N1C[C@H](C)[C@@H](CN(C)C(=O)Cc2ccncc2)Oc2cc(C#Cc3ccccc3F)ccc2S1(=O)=O	-5	-8
O=C(C[C@H]1CC[C@H](NC(=O)c2ccc(F)cc2)[C@H](CO)O1)NCCc1ccccc1	-12	-10

# Source: PubChem
